Screens deposited in PubChem by SRMLSC.
H5N1 antiviral: MDCK cell protection from H5N1 avian flu | cytopathic effect, luminescence, 72 h; hits give high values; no value below 0 was filed and about half of the inactive calls have no number; reference of the scale not given here | inhibition, % at 50 µM | 96,000 compounds, 0.07% hits; in the data active = inhibition above about 25%
* = called active by the depositor; i = inactive. Only part of the results is shown; rates above refer to the full screens.

SMILES | H5N1 antiviral
CC1=C(C(=O)OCC(C)C)C(c2cccc(F)c2)N2C(=O)C(C)SC2=N1 (stereo unspecified) | i
CCOC(=O)C1CCCN(c2c(Nc3cccc(C)c3)c(=O)c2=O)C1 (stereo unspecified) | 2.5
Cc1nc(SCc2c(F)cccc2Cl)c2c(=O)n(C)c(=O)n(C)c2n1 | i
COC(=O)c1ccc(CSc2nc3scc(-c4cccs4)c3c(=O)[nH]2)o1 | i
COc1ccc(C(=O)COC(=O)c2ccc(NC(=O)c3ccccc3)cc2)cc1 | 1.1
CN1CCN(CC(=O)Nc2c(C(=O)C3CC3)oc3ccccc23)CC1 | 0.7
COc1ccc(S(=O)(=O)N(CC(=O)O)c2ccc(C)cc2)cc1 | i
O=C(c1ccc(F)cc1)c1ccc(N2CCCC2)cc1 | i
CCCN(CCC)S(=O)(=O)c1ccc(NC(=O)Cc2cccs2)cc1 | 0.4
COc1ccccc1N1CCN(S(=O)(=O)c2cccc3nsnc23)CC1 | 0.9
Cc1noc(C)c1C(=O)Nc1cccnc1 | i
O=C1C2CCCN2C(c2ccccc2F)N1c1ccc(Cl)cc1 (stereo unspecified) | 1.1
COc1ccc(CN2C(=O)C3C4C=CC(C4)C3C2=O)cc1 (stereo unspecified) | 1.4
COc1ccc(S(=O)(=O)N2CCCC(C(=O)O)C2)cc1 (stereo unspecified) | i
O=S(=O)(NCCSc1nnc(-c2ccco2)n1-c1ccccc1)c1ccccc1 | i
COc1cccc(Cn2cccc(NC(=O)Nc3ccc(C#N)cc3)c2=O)c1 | 0.1
Cc1ccc(C(=O)O/N=C(/c2nonc2N)N(C)C)cc1 | 0.8
CCOC(=O)c1cc(CC)sc1NC(=O)c1cc(OC)c(OC)c(OC)c1 | i
O=C(CSc1cccc2cccc(Cl)c12)OCC(=O)N1CCN(C(=O)c2ccco2)CC1 | i
CCOc1cc(C2C(C#N)=C(N)OC3CCCC(=O)C32)ccc1OCCN1CCOCC1 (stereo unspecified) | i
COc1cc(CN2CCC(C(=O)N3CCN(c4ccccc4F)CC3)CC2)cc(OC)c1O | i
Cc1nc(N2CCN(S(=O)(=O)c3ccccc3)CC2)c2cc(-c3ccccc3)sc2n1 | i
COc1ccc(/C=N/n2c(SC)nnc(C(C)(C)C)c2=O)cc1OC | 0.0
CC(=O)N1CCC(N(CCCOC(C)C)C(=O)Nc2ccc(C)c(C)c2)CC1 | i
CN(C)CCCN1C(=O)c2oc3ccc(F)cc3c(=O)c2C1c1cccnc1 (stereo unspecified) | 1.8
O=C(CN(Cc1cccs1)C(=O)CCC(=O)Nc1nccs1)NCc1ccccc1 | i
CC(C)NC(=O)CSc1nncn1-c1ccccc1 | i
CC1=CC(C)(C)Nc2ccccc21 | 0.4
CCc1nnc(NC(=O)CCC(=O)N2CCN(Cc3cc(Cl)ccc3OC)CC2)s1 | i
Cc1occc1C(=O)N1CCN(C(=O)C2CCCO2)CC1 (stereo unspecified) | i
Cc1c(C(=O)OCC2CCCO2)[nH]c2c1C(=O)CC(c1ccco1)C2 (stereo unspecified) | i
CC(=O)c1c(C(C)=O)c(C)n(-c2ccc(C)c(NC(=O)c3ccccc3Cl)c2)c1C | 0.1
O=C(CCn1c(=O)[nH]c2ccsc2c1=O)NCCc1ccc(Cl)cc1 | 1.2
COc1ccc(CNC(=O)CCCOc2cc(=O)n(C)c3ccccc23)cc1 | 1.1
COc1ccc2c(c1)c(C(O)CN1CCC3(CC1)OCCO3)c(C)n2C (stereo unspecified) | 0.5
CCCN=Cc1sc2ccc(OCC)cc2c1O | i
CCOc1ccccc1N(CC(=O)Nc1cc(OC)ccc1OC)S(C)(=O)=O | 0.7
O=S(=O)(c1cccc(S(=O)(=O)N2CCOCC2)c1)N1CCCCC1 | i
O=c1[nH]c2ccc(Cl)cc2c(-c2ccccc2)c1N1CCN(c2ccccn2)CC1 | 1.6
Cc1ccccc1OCCNc1cc(N2CCCCC2)ccc1[N+](=O)[O-] | 0.3
NC1=NC(=O)CC(C(=O)NCc2ccccc2)S1 (stereo unspecified) | i
COc1ccc(C)cc1S(=O)(=O)NCCc1ccccc1 | i
Cc1cc(OC(=O)c2c(Cl)cc(Cl)cc2Cl)nc(C)n1 | i
CCN1CCCC1CNC(=O)C1c2cc(OC)c(OC)cc2C(=O)N(C)C1c1cccnc1 (stereo unspecified) | 0.4
O=C(Nc1ccc2nc(-c3ccco3)c(-c3ccco3)nc2c1)N1CCCCCC1 | i
CN1C(=O)C(O)(CC(=O)c2ccncc2)c2ccccc21 (stereo unspecified) | i
COc1ccc(-c2nc(CN3CCC(C(=O)N4CCc5ccccc54)CC3)c(C)o2)cc1OC | i
Cc1ccc(NS(=O)(=O)c2cccc(C(=O)n3ncc(C#N)c3N)c2)c(C)c1 | i
CCn1c(SCC(=O)Nc2nc(C)cs2)nnc1-c1ccoc1C | 2.4
NC(=O)C1CCN(C(=O)OCc2ccccc2)CC1 | i

Next structures.
SMILES | H5N1 antiviral
COC(=O)C1=C(N)OC2=C(C(=O)CC(C)(C)C2)C1c1cccnc1 (stereo unspecified) | 0.2
CCOC(=O)c1c(C)[nH]c(C(=O)CSc2nnnn2-c2ccccc2)c1C | i
O=C(Nc1ccc2c(c1)OCO2)c1cccc(Cl)c1 | i
Clc1ccc(-n2nnnc2-c2ccccc2)cc1Cl | 0.0
c1coc(CN(Cc2cccs2)Cc2nnnn2C2CCCCC2)c1 | 10.8
O=C(Nc1ccccc1)c1ccn[nH]1 | i
CC(C(=O)N1CCCc2ccccc21)N1CCN(S(=O)(=O)c2ccccc2F)CC1 (stereo unspecified) | 1.4
CC12CN3CC(C)(CN(C1)C3c1ccc3c(c1)OCO3)C2=O (stereo unspecified) | 0.9
Brc1ccc(N=C/C=C/C=C/Nc2ccc(Br)cc2)cc1 | i
COc1ccc2c(c1)N(C)C(=O)CC(c1ccccc1)=N2 | i
CC(NC(=O)C1CCN(S(=O)(=O)N2CCCCCC2)CC1)c1ccccc1 (stereo unspecified) | i
Nc1nc(SCc2nc3scc(-c4cccs4)c3c(=O)[nH]2)n[nH]1 | i
CCOc1ncccc1C(=O)OCC(=O)N1CCN(S(=O)(=O)c2ccc(Cl)cc2)CC1 | 1.2
COc1ccccc1NC(=O)c1csc2c1CCCC2 | 0.0
N/C(Cc1ccc(Cl)c(Cl)c1)=N\OC(=O)c1cccs1 | i
Cc1ccc(Oc2cnc3ccccc3n2)cc1 | 0.2
CC(=O)Nc1ccc(OCC(O)CN2CCN(c3cccc(Cl)c3)CC2)cc1 (stereo unspecified) | 1.6
c1ccc(Cc2nnc3sc(-c4cccnc4)nn23)cc1 | 0.2
Cc1cc(Nc2ccccc2)n(C(=O)c2ccccc2)n1 | i
CCn1c(COc2ccccc2C)nnc1SCC(=O)O | i

Structural class, the compounds so far with four or more nitrogen atoms.
SMILES | H5N1 antiviral
Cc1nc(SCc2c(F)cccc2Cl)c2c(=O)n(C)c(=O)n(C)c2n1 | i
COc1ccccc1N1CCN(S(=O)(=O)c2cccc3nsnc23)CC1 | 0.9
O=S(=O)(NCCSc1nnc(-c2ccco2)n1-c1ccccc1)c1ccccc1 | i
COc1cccc(Cn2cccc(NC(=O)Nc3ccc(C#N)cc3)c2=O)c1 | 0.1
Cc1ccc(C(=O)O/N=C(/c2nonc2N)N(C)C)cc1 | 0.8
Cc1nc(N2CCN(S(=O)(=O)c3ccccc3)CC2)c2cc(-c3ccccc3)sc2n1 | i
COc1ccc(/C=N/n2c(SC)nnc(C(C)(C)C)c2=O)cc1OC | 0.0
O=C(CN(Cc1cccs1)C(=O)CCC(=O)Nc1nccs1)NCc1ccccc1 | i
CC(C)NC(=O)CSc1nncn1-c1ccccc1 | i
CCc1nnc(NC(=O)CCC(=O)N2CCN(Cc3cc(Cl)ccc3OC)CC2)s1 | i
O=c1[nH]c2ccc(Cl)cc2c(-c2ccccc2)c1N1CCN(c2ccccn2)CC1 | 1.6
CCN1CCCC1CNC(=O)C1c2cc(OC)c(OC)cc2C(=O)N(C)C1c1cccnc1 (stereo unspecified) | 0.4
O=C(Nc1ccc2nc(-c3ccco3)c(-c3ccco3)nc2c1)N1CCCCCC1 | i
Cc1ccc(NS(=O)(=O)c2cccc(C(=O)n3ncc(C#N)c3N)c2)c(C)c1 | i
CCn1c(SCC(=O)Nc2nc(C)cs2)nnc1-c1ccoc1C | 2.4
CCOC(=O)c1c(C)[nH]c(C(=O)CSc2nnnn2-c2ccccc2)c1C | i
Clc1ccc(-n2nnnc2-c2ccccc2)cc1Cl | 0.0
c1coc(CN(Cc2cccs2)Cc2nnnn2C2CCCCC2)c1 | 10.8
Nc1nc(SCc2nc3scc(-c4cccs4)c3c(=O)[nH]2)n[nH]1 | i
c1ccc(Cc2nnc3sc(-c4cccnc4)nn23)cc1 | 0.2

Carrying on.
SMILES | H5N1 antiviral
c1cnc2ccc(C(c3nnnn3C3CCCC3)N3CCN4CCCC4C3)cc2c1 (stereo unspecified) | i
COc1ccc(C)cc1NC(=O)C(=O)NCc1ccncc1 | 1.2
COc1ccc(Nc2nc(Cl)nc(NCc3ccco3)n2)c(OC)c1 | i
Cc1cc2oc(C(=O)NCc3ccc4c(c3)OCO4)c(C)c2cc1C | 1.4
CS(=O)(=O)N1CCN(C(=O)CCC2CCCC2)CC1 | i
COc1ccc(CCNC(=O)C(C)Sc2ccccc2)cc1OC (stereo unspecified) | i
CCOC(=O)c1cc(C)n(CCc2ccccc2)c1C | i
Cc1ccc(C2NC(=S)NC(c3ccc(C)cc3)C23C(=O)NC(=O)NC3=O)cc1 (stereo unspecified) | 0.5
CC(=O)c1cnc(Nc2nc(C)c3cc(C)c(C)cc3n2)nc1C | 0.5
O=C(NC1CCCCC1)N1CCN(C(c2ccccc2)c2ccccc2)CC1 | 0.6
Cc1nn2c(N3CCN(C(=O)c4ccco4)CC3)cc(C(C)(C)C)nc2c1-c1ccc(Cl)cc1 | i
COc1cccc2cc(C(=O)N3CCN(c4ccccn4)CC3)c(=O)oc12 | 0.4
Cc1ccc(C)c(S(=O)(=O)NCCOc2nc(NC(C)C)nc(NC(C)C)n2)c1 | 0.5
O=C(O)CCCCCNC(=O)c1ccc(Br)cc1 | i
Cc1ccc(S(=O)(=O)NCc2nc3ccccc3c(=O)n2N)cc1 | 1.8
Nc1ccc(C(=O)N/N=C/c2ccccc2)cc1 | 0.3
Cn1c(=O)c2c(nc(NCCCO)n2Cc2cccc(Br)c2)n(C)c1=O | i
CC1(C)Cc2c(sc3nc(SCC(=O)O)[nH]c(=O)c23)CO1 | i
N#Cc1ccc(CSc2nnc(COc3ccccc3)n2-c2ccccc2)cc1 | 7.2
COc1ccc(-n2c(SC)nc(O)c(Cc3ccccc3)c2=O)cc1 | i
COc1ccc2cnn(-c3ccc(C)cc3)c(=O)c2c1OC | i
CC(CCc1ccccc1)NC(=O)c1ccccc1 (stereo unspecified) | 2.5
CC(=O)c1c(COC(=O)c2ccncc2)nc2ccccc2[n+]1[O-] | 0.2
Cn1nc(-c2ccc(C(=O)O)cc2)c2ccccc2c1=O | 0.0
CCOc1cc(NC(=O)c2ccccc2[N+](=O)[O-])c(OCC)cc1NC(=O)CC(C)C | i
CCCOC(=O)c1c(N)n(Cc2cccs2)c2nc3ccccc3nc12 | i
CC1(C)Cc2c(c(N3CCOCC3)nc3snc(N)c23)CO1 | i
Cc1cc(C)nc(SCCn2c(N(C)Cc3ccccc3)nc3c2c(=O)n(C)c(=O)n3C)n1 | 1.7
O=C(Nc1cccnc1)c1ccc(Cl)c(S(=O)(=O)N2CCCCCC2)c1 | 2.6
Cc1cc(=O)[nH]c(N/N=C/c2ccco2)n1 | 8.0
O=c1[nH]c(NCCCO)nc2c1C1(CCCC1)Cc1ccccc1-2 | i
O=C(C1CCCCC1)N1CCN(S(=O)(=O)c2ccc(Cl)cc2)CC1 | i
Cc1sc2ncnc(OCC(=O)NC(C)C)c2c1C | i
CC(C)CCOP(=O)(c1ccc(N(C)C)cc1)C(O)c1ccccn1 (stereo unspecified) | 1.2
O=C(CS(=O)(=O)Cc1ccccc1)Nc1nnc(C2CCCCC2)s1 | 0.3
O=C(COc1ccccc1)NCc1ccccc1 | i
COCc1cc(=O)[nH]c2cc(NC(=O)C(F)(F)F)c(C)cc12 | i
CN1CCc2nc(NC(=O)c3cccc(S(=O)(=O)N4CCc5ccccc54)c3)sc2C1 | 0.4
Cc1cc(=O)[nH]c2c1c(C)nn2C1CCCC1 | i
COc1ccc(NC(=O)/C(=C\c2ccc(OS(=O)(=O)c3ccc(C)cc3)cc2)NC(=O)c2ccccc2)cc1 | i
O=S(=O)(c1ccc(S(=O)(=O)N(Cc2ccco2)Cc2ccccc2Cl)cc1)N1CCCC1 | i
Cn1cnnc1SCc1ccc(F)c2ccccc12 | 0.3
CC1CC1C(=O)OCC(=O)NCc1ccc(Cl)cc1Cl (stereo unspecified) | i
O=C(NCC1CCCO1)c1ccccc1NC(=O)c1cccc2ccccc12 (stereo unspecified) | i
Cc1ccc(C(=O)c2ccccc2C(=O)O)s1 | 0.6
NC(=O)C1CCN(C(=O)CSc2nc3ccccc3[nH]2)CC1 | i
COc1ccc(S(=O)(=O)N2CCCN(S(=O)(=O)c3ccc(OC)cc3C)CC2)c(C)c1 | 0.6
O=C1CCCC2=C1C(c1ccco1)Nc1ccc(C(=O)c3ccccc3)cc1N2 (stereo unspecified) | i
Cc1ccc2c(c1)C(CCN)C(=O)N2Cc1ccccc1 (stereo unspecified) | i
Cc1cc(C)cc(Oc2ccccc2C=O)c1 | i

Next part:
SMILES | H5N1 antiviral
CCOC(=O)c1[nH]c2ccc(OC)cc2c1NC(=O)C(C)N1CCSCC1 (stereo unspecified) | 0.0
CCCOc1ccccc1NC(=O)/C=C/C(N)=O | 0.2
Cc1nc2ccc(NC(=O)c3cccs3)cc2c(=O)n1Cc1ccc(Cl)cc1 | 4.6
Cn1c(SCC(=O)Nc2cccc(Br)c2)nnc1-c1cc2ccccc2o1 | i
O=C(Nc1cccc(F)c1)c1ccc(S(=O)(=O)NCC2CCCO2)cc1 (stereo unspecified) | i
CCOC(=O)c1nnn(-c2nonc2N)c1COc1ccc(F)cc1 | 0.5
COc1ccc(CC(=O)NCc2nnc(SCC(=O)Nc3nccs3)n2-c2ccccc2)cc1 | 1.6
COc1ccccc1N1CC(O)=C(c2nc3ccccc3c(=O)[nH]2)C1=N | 2.2
COC(=O)[C@@H](NC(=O)Nc1ccc(OC(F)(F)F)cc1)C(C)C | i
CCOc1ccccc1C1C(C(N)=O)=C(C)Nc2nc(-c3cccc(C)c3)nn21 (stereo unspecified) | 1.6
Cc1ccc(NC(=O)CSc2nnc(-c3ccccc3C)o2)cc1C | i
